Source: PubChem
Mtb MbtI inh: blocks the Mycobacterium tuberculosis siderophore enzyme MbtI | AID 493033 | hit rate 0.89% among 100,000 | inhibition, %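 (about 17 µg/mL by stock and volumes)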 | purified MbtI enzyme, fluorescence intensity read-out;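 active = above 50% in both replicates, above 80% if mildly self-fluorescent; inactive = the rest, strongly fluorescent compounds included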;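 also: 0% = mean of negative and 100% = mean of positive controls; one replicate is shown; some compounds called inactive have numbers as strong as hits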
Target sequence (P9WFX0 whole entry, looked up): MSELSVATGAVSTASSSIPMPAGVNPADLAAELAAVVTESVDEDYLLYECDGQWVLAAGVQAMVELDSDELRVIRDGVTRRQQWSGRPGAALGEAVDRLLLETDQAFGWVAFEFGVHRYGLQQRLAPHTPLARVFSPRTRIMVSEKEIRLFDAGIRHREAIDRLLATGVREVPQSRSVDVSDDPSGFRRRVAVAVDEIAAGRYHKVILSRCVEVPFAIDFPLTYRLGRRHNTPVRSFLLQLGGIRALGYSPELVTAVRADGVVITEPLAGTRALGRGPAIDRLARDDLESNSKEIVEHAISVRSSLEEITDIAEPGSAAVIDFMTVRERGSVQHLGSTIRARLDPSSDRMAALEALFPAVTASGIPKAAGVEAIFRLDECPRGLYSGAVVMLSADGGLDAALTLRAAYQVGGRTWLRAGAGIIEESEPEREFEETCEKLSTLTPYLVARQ
PV pol inh: poliovirus RNA polymerase inhibition; P03300; poliovirus polymerase elongation, fluorescence polarization; hits give low values; % elongation, % (compound at 16.7 µg/mL); hit rate 0.66% among 150,000; in the data active = % elongation below about 90%; also: some results filed as inactive read as strong as hits
MenB inh: inhibitors of Mycobacterium tuberculosis MenB enzyme; P9WNP5; MenB enzyme assay, absorbance read-out; some hits fall short of the stated cut; inhibition, %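 (about 12 µg/mL by stock and volumes)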; hit rate 0.43% among 100,000; AID 540299;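 active = mean of two replicates above 30%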;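 also: 0% = no compound and 100% = wells with inactive enzyme; the first replicate is given; strong numbers were not always called active; inactives centre near -10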
Target sequence (P9WNP5 whole entry, looked up): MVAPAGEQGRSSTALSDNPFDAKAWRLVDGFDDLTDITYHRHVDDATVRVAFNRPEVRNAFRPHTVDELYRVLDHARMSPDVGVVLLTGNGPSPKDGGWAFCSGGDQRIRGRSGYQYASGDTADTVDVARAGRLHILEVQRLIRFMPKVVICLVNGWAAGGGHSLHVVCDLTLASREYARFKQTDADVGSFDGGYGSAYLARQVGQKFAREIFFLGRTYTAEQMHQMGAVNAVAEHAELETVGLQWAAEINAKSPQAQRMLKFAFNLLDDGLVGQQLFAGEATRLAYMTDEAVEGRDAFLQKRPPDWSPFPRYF
PV pol inh intensity: further read-out of PV pol inh, marked with its call; % elongation; measured here: total intensity read-out; formula for this scale not given here;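 total fluorescence in place of polarization; lower means less elongation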
* marks the source's active call; other numbers are inactive results.

How did Cc1ccc(S(=O)(=O)NCc2cn3ccccc3n2)c(C)c1 do in these assays?
Mtb MbtI inh: 15; PV pol inh: 103; MenB inh: 8; PV pol inh intensity: 104

Results for CCN1C(=S)NC2c3cc(Br)ccc3OC1(C)C2C(=O)Nc1ccc(Cl)cc1 (stereo not given) ?
Mtb MbtI inh: -4; PV pol inh: 103; MenB inh: -25; PV pol inh intensity: 107

How did COc1ccc(Nc2nc(N3CCN(C)CC3)nc3ccccc23)c(OC)c1 do in these assays?
Mtb MbtI inh: -28; PV pol inh: 103; MenB inh: -24; PV pol inh intensity: 101

What do the screens show for `CN1C(=C(C#N)C(=O)COc2ccc(C#N)cc2)N(C)c2ccccc21`?
Mtb MbtI inh: -6; PV pol inh: 99; MenB inh: -15; PV pol inh intensity: 104

How did CCN(CCCNc1nnc2c3ccccc3n(CC)c2n1)c1cccc(C)c1 do in these assays?
Mtb MbtI inh: -3; PV pol inh: 101; MenB inh: -14; PV pol inh intensity: 106

Results for N#Cc1ccc(COC(=O)Cn2c(-c3ccccc3)cc3ccccc32)cc1 ?
Mtb MbtI inh: -3; PV pol inh: 101; MenB inh: 2; PV pol inh intensity: 100

How did CCCC(c1nnnn1Cc1ccc(OC)cc1)N1CCC(C(N)=O)CC1 (stereo not given) do in these assays?
Mtb MbtI inh: 1; PV pol inh: 104; MenB inh: -60; PV pol inh intensity: 98

Results for Oc1ccc(-c2nc3sc(-c4ccc(O)cc4)nc3s2)cc1 ?
PV pol inh: 110; MenB inh: -2; PV pol inh intensity: 118

Results for COc1ccc(CNC(=O)c2c(-n3cccc3)sc3c2CCCC3)cc1 ?
Mtb MbtI inh: 10; MenB inh: 3

How did COC(=O)CNC(=O)c1cn(-c2ccccc2)nc1-c1ccc(C)cc1 do in these assays?
Mtb MbtI inh: -11; PV pol inh: 102; PV pol inh intensity: 105

What do the screens show for `O=C(O)CC(NC(=O)Cc1ccccc1)C(F)(F)F` (stereo not given)?
Mtb MbtI inh: -5; PV pol inh: 102; PV pol inh intensity: 104

What do the screens show for `Cc1n[nH]c(C)c1S(=O)(=O)N1CCC(C(=O)OCc2ccc(C(C)(C)C)cc2)CC1`?
Mtb MbtI inh: -6; PV pol inh: 103; MenB inh: -23; PV pol inh intensity: 103

How did C=Cc1ccc(Cn2c(C(=O)O)c(CNCCc3ccc(SC)cc3)c3ccccc32)cc1 do in these assays?
Mtb MbtI inh: 33; PV pol inh: 101; MenB inh: -17; PV pol inh intensity: 104

What do the screens show for `O/N=C1/C2C3CC4C2/C(=N/O)C2C1C3C42` (stereo not given)?
Mtb MbtI inh: -4; PV pol inh: 102; MenB inh: -17; PV pol inh intensity: 108

What do the screens show for `COC(=O)c1ccc2c(=O)[nH]c(COC(=O)C3CC4CCCC(C3)C4=O)nc2c1` (stereo not given)?
Mtb MbtI inh: -8; PV pol inh: 103; MenB inh: -19; PV pol inh intensity: 110

What do the screens show for `CCOc1cc(NC(=O)C2CC2)c(OCC)cc1NC(=O)CCn1nnc2ccccc21`?
Mtb MbtI inh: -17; PV pol inh: 103; MenB inh: -5; PV pol inh intensity: 102

What do the screens show for `CCOC(=O)Cn1c(=NC(=O)c2ccco2)sc2cccc(F)c21`?
Mtb MbtI inh: 1; PV pol inh: 99; MenB inh: 6; PV pol inh intensity: 105

How did CCn1c(NCc2ccccc2)nc2ccccc21 do in these assays?
Mtb MbtI inh: 2; PV pol inh: 100; MenB inh: 38*; PV pol inh intensity: 99

How did COc1cc(CC(=O)OCC(=O)N2CCCC2=O)cc(OC)c1OC do in these assays?
Mtb MbtI inh: -39; PV pol inh: 96; MenB inh: -44; PV pol inh intensity: 90

What do the screens show for `CC(C)(C)OC1CC(C(=O)O)N(C(=O)OCc2ccccc2)C1` (stereo not given)?
Mtb MbtI inh: -2; PV pol inh: 105; MenB inh: -17; PV pol inh intensity: 104

How did O=C(CSc1nc(-c2ccccc2)c(-c2ccccc2)o1)NC1CCS(=O)(=O)C1 (stereo not given) do in these assays?
Mtb MbtI inh: 104; PV pol inh: 105; MenB inh: -4; PV pol inh intensity: 101

Results for CCN(C(=O)c1oc2ccccc2c1C)c1ccccc1 ?
Mtb MbtI inh: -4; PV pol inh: 104; PV pol inh intensity: 106

Results for CC(=O)Oc1cccc2cc(-c3nc(-c4ccc(F)cc4)no3)c(=O)oc12 ?
Mtb MbtI inh: 8; PV pol inh: 103; MenB inh: 9; PV pol inh intensity: 104

Results for CCNC(=O)CSc1nnc(-c2cc(OC)c(OC)c(OC)c2)o1 ?
Mtb MbtI inh: 0; PV pol inh: 105; MenB inh: 0; PV pol inh intensity: 110

What do the screens show for `CCc1nn(Cc2cccc(C)c2)c(=O)c2cc3cc(C)ccc3n12`?
Mtb MbtI inh: 5; PV pol inh: 103; MenB inh: -16; PV pol inh intensity: 104

Results for CC(C)(S)P(=O)(O)c1ccccc1 ?
Mtb MbtI inh: -15; PV pol inh: 103; MenB inh: -67; PV pol inh intensity: 102

Results for CCCCS(=O)(=O)NC1=NCN(C2CCN(Cc3ccccc3)CC2)CN1 ?
Mtb MbtI inh: -13; PV pol inh: 103; MenB inh: -6; PV pol inh intensity: 100

What do the screens show for `O=C1CC(c2ccc(Cl)cc2)CC(O)=C1C=NCCN1CCNCC1` (stereo not given)?
Mtb MbtI inh: 19; PV pol inh: 101; MenB inh: 9; PV pol inh intensity: 99

What do the screens show for `CCOC(=O)/C(=N\O)C1=NC2(CCCC2)Cc2cc(OC)c(OC)cc21`?
Mtb MbtI inh: 3; PV pol inh: 100; MenB inh: -31; PV pol inh intensity: 96

Results for CCOC(=O)c1ccc2c(c1)nc(SCC(=O)c1ccc3c(c1)OCCO3)n2CC ?
Mtb MbtI inh: 6; PV pol inh: 103; MenB inh: -8; PV pol inh intensity: 101

Results for O=C(O)C1CC(=O)N(CCC23CC4CC(CC(C4)C2)C3)C(=Nc2ccc(Cl)cc2)S1 (stereo not given) ?
PV pol inh: 102; MenB inh: -10; PV pol inh intensity: 108

What do the screens show for `CN1CCC(N(C)CC(O)COCc2cccs2)CC1` (stereo not given)?
Mtb MbtI inh: 5; PV pol inh: 98; MenB inh: 1; PV pol inh intensity: 96

Results for O=C(O)c1ccc(N=Cc2cn(Cc3ccccc3)c3ccccc23)cc1 ?
Mtb MbtI inh: -7; PV pol inh: 101; MenB inh: -2; PV pol inh intensity: 97

What do the screens show for `O=C(CN1CCC2(CC1)N=C(c1ccccc1)C(=O)N2)Nc1ccc(F)cc1F`?
Mtb MbtI inh: -11; PV pol inh: 101; MenB inh: -6; PV pol inh intensity: 102

How did COc1ccc(CC(=O)Oc2ccc(C#N)cc2)cc1 do in these assays?
Mtb MbtI inh: -1; PV pol inh: 101; MenB inh: -5; PV pol inh intensity: 103

How did CN(C)S(=O)(=O)c1ccc(C(=O)NCCc2ccccc2)cc1 do in these assays?
Mtb MbtI inh: -5; PV pol inh: 99; MenB inh: 6; PV pol inh intensity: 101

What do the screens show for `O=C(OCC1CC1)c1cnc(N2CCOCC2)nc1C(F)(F)F`?
Mtb MbtI inh: 1; PV pol inh: 100; MenB inh: 8; PV pol inh intensity: 98

Results for O=S(=O)(NCCN1CCOCC1)c1ccc2ccccc2c1 ?
PV pol inh: 99; MenB inh: 11; PV pol inh intensity: 98

What do the screens show for `Cc1ccc(OCC(O)CN2CC(C)CC(C)C2)cc1` (stereo not given)?
Mtb MbtI inh: -1; PV pol inh: 100; MenB inh: 2; PV pol inh intensity: 109

Results for CCC(=O)N1C(CC(=O)Nc2ccc(F)cc2)C(=O)NC2CCCCC21 (stereo not given) ?
Mtb MbtI inh: 1; PV pol inh: 102; MenB inh: -11; PV pol inh intensity: 109

Results for Cc1cccc(NC2=NC(C)CS2)c1 (stereo not given) ?
Mtb MbtI inh: -9; PV pol inh: 102; PV pol inh intensity: 106

What do the screens show for `O=C1CC2(CCCC2)CC(=O)N1CCCCN1CCN(c2ncccn2)CC1`?
Mtb MbtI inh: -4; PV pol inh: 101; MenB inh: 2; PV pol inh intensity: 100

Results for CCOC(=O)C(C)(C)Sc1nc2c(c(=O)n1-c1ccc(F)cc1)SCC2 ?
Mtb MbtI inh: -1; PV pol inh: 101; MenB inh: -11; PV pol inh intensity: 101

What do the screens show for `C=CC(=O)N1CN(C(=O)C=C)CN(C(=O)C=C)C1`?
Mtb MbtI inh: 15; PV pol inh: 102; MenB inh: -4; PV pol inh intensity: 104

What do the screens show for `CCCN(CCC)S(=O)(=O)c1ccc(C(=O)Nc2nnc(-c3cccc(OC)c3)o2)cc1`?
Mtb MbtI inh: 12; PV pol inh: 104; MenB inh: 10; PV pol inh intensity: 100

How did CSc1cccc(NC(=O)C2CCN(S(=O)(=O)c3ccc4[nH]c(=O)oc4c3)CC2)c1 do in these assays?
Mtb MbtI inh: 0; PV pol inh: 99; MenB inh: -4; PV pol inh intensity: 100

How did C(=NCc1cccnc1)c1c2ccccc2cc2ccccc12 do in these assays?
Mtb MbtI inh: 15; PV pol inh: 98; MenB inh: -65; PV pol inh intensity: 101

How did CCOc1ccccc1OC(=O)c1ccc2ncsc2c1 do in these assays?
Mtb MbtI inh: 2; PV pol inh: 98; MenB inh: -7; PV pol inh intensity: 104

How did CCc1c(C)[nH]c2c1C(=O)C(CN1CCOCC1)CC2 (stereo not given) do in these assays?
Mtb MbtI inh: -5; PV pol inh: 100; MenB inh: 0; PV pol inh intensity: 100

How did COc1ccc(-c2nc(C#N)c(N(C)C)o2)cc1 do in these assays?
Mtb MbtI inh: 117; PV pol inh: 101; MenB inh: -5; PV pol inh intensity: 98

How did COc1cccc(/C=C2/Sc3ccc(C(=O)NCC(OC)OC)cc3NC2=O)c1 do in these assays?
Mtb MbtI inh: -7; PV pol inh: 98; MenB inh: -1; PV pol inh intensity: 106

How did O=C(Cn1nc(-c2ccccc2)ccc1=O)Nc1nccs1 do in these assays?
Mtb MbtI inh: -1; PV pol inh: 101; MenB inh: -12; PV pol inh intensity: 100

Results for COc1cccc(C2CC(c3cccs3)=NN2C(=O)CN2CCN(C)CC2)c1O (stereo not given) ?
Mtb MbtI inh: -10; MenB inh: 2

What do the screens show for `CC(C)c1cccc(C(C)C)c1OCCOCCN1CCNCC1`?
Mtb MbtI inh: -9; PV pol inh: 103; MenB inh: -3; PV pol inh intensity: 103

How did CC(C)(C)C(=O)c1sc2nc3c(c(-c4cccs4)c2c1N)CCC3 do in these assays?
PV pol inh: 111; MenB inh: -14; PV pol inh intensity: 124

Compounds shown so far containing four or more nitrogen atoms:
How did COc1ccc(Nc2nc(N3CCN(C)CC3)nc3ccccc23)c(OC)c1 do in these assays?
Mtb MbtI inh: -28; PV pol inh: 103; MenB inh: -24; PV pol inh intensity: 101

What do the screens show for `CN1C(=C(C#N)C(=O)COc2ccc(C#N)cc2)N(C)c2ccccc21`?
Mtb MbtI inh: -6; PV pol inh: 99; MenB inh: -15; PV pol inh intensity: 104

How did CCN(CCCNc1nnc2c3ccccc3n(CC)c2n1)c1cccc(C)c1 do in these assays?
Mtb MbtI inh: -3; PV pol inh: 101; MenB inh: -14; PV pol inh intensity: 106

How did CCCC(c1nnnn1Cc1ccc(OC)cc1)N1CCC(C(N)=O)CC1 (stereo not given) do in these assays?
Mtb MbtI inh: 1; PV pol inh: 104; MenB inh: -60; PV pol inh intensity: 98

What do the screens show for `CCOc1cc(NC(=O)C2CC2)c(OCC)cc1NC(=O)CCn1nnc2ccccc21`?
Mtb MbtI inh: -17; PV pol inh: 103; MenB inh: -5; PV pol inh intensity: 102

Results for CCCCS(=O)(=O)NC1=NCN(C2CCN(Cc3ccccc3)CC2)CN1 ?
Mtb MbtI inh: -13; PV pol inh: 103; MenB inh: -6; PV pol inh intensity: 100

What do the screens show for `O=C(CN1CCC2(CC1)N=C(c1ccccc1)C(=O)N2)Nc1ccc(F)cc1F`?
Mtb MbtI inh: -11; PV pol inh: 101; MenB inh: -6; PV pol inh intensity: 102

What do the screens show for `O=C1CC2(CCCC2)CC(=O)N1CCCCN1CCN(c2ncccn2)CC1`?
Mtb MbtI inh: -4; PV pol inh: 101; MenB inh: 2; PV pol inh intensity: 100

What do the screens show for `CCCN(CCC)S(=O)(=O)c1ccc(C(=O)Nc2nnc(-c3cccc(OC)c3)o2)cc1`?
Mtb MbtI inh: 12; PV pol inh: 104; MenB inh: 10; PV pol inh intensity: 100

How did O=C(Cn1nc(-c2ccccc2)ccc1=O)Nc1nccs1 do in these assays?
Mtb MbtI inh: -1; PV pol inh: 101; MenB inh: -12; PV pol inh intensity: 100

Results for COc1cccc(C2CC(c3cccs3)=NN2C(=O)CN2CCN(C)CC2)c1O (stereo not given) ?
Mtb MbtI inh: -10; MenB inh: 2
